Screening data: PubChem, several laboratories
INS promoter inh: TRM-6 insulin promoter activity inhibition. TRM-6 cells (human fetal islet line), insulin promoter-eGFP reporter, imaging; reporter expression induced with tamoxifen. inhibition, % at 2 µM. 0.9% of 130,000 active;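 active = inhibition above the mean plus 3 SD, with well images judged a real hit on visual review, cut at about 60% in these data, passing the limit was not always enough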
PKD1 kinase inh: inhibitors of human PKD1 kinase; PKD1 kinase fluorescence polarization assay; AID 797; inhibition, %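 (about 10 µM by stock and volumes)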; 0.056% of 200,000 active;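 active = inhibition of 50% or more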;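 note: controls were vehicle for no effect and a reference inhibitor for full effect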
GALR2 agonist: GALR2 (human) receptor agonism; activation, %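 (tested at 5 µM)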; AID 803; O43603; 0.48% of 140,000 active; GALR2-expressing cells, agonist activation read-out;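 active = above mean plus 3 SD of all compounds, about 5% in these data, not always enough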;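 note: 0% = vehicle buffer wells and 100% = reference agonist at full effect; tested in CHO reporter cells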
Target sequence (O43603 whole entry, looked up): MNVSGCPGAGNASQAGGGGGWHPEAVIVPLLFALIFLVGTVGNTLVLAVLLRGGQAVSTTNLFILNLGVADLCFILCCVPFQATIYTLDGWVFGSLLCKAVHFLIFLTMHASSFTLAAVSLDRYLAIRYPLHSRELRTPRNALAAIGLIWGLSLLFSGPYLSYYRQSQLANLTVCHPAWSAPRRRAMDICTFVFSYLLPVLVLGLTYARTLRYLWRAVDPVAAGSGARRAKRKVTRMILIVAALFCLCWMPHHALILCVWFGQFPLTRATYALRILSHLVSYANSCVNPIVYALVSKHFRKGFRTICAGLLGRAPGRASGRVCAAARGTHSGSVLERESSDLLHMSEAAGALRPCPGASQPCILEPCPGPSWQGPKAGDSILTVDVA
RGS16-Gao HTS: modulates binding between human RGS16 and Galphao. O15492+P09471. bead-based flow cytometry RGS16-Galphao binding, fluorescence; actives lie on both sides. binding response (% of control), % at 10 µM. 0.38% of 220,000 active;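 active = below 25% or above 175%, edge rows of some plates excepted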;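 note: Galphao activated by GDP with aluminum fluoride before binding; 100% = wells without compound and 0% = beads without RGS; some results beyond the cut were filed as inactive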
Target sequence (O15492 whole entry, looked up): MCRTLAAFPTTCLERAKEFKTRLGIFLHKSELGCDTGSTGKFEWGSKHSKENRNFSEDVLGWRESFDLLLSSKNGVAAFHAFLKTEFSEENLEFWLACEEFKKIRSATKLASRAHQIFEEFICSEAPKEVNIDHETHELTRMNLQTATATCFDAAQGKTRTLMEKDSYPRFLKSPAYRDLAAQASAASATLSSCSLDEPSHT
Target sequence (P09471 whole entry, looked up): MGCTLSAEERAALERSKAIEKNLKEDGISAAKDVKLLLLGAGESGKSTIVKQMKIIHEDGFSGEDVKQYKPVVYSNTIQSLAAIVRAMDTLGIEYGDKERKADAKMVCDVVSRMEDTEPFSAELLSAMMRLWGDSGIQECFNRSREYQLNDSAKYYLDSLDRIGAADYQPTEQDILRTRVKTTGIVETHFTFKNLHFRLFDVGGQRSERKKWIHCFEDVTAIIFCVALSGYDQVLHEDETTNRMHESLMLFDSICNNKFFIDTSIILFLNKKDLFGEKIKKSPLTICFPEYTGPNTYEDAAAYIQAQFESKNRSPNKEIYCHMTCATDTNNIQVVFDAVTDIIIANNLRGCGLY
HSV replic up: HSV replication enhancement; HSV replication augmentation in cells, fold increase; maximum fold increase; 0.005% of 220,000 active;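 active = peak rise of 1.5-fold or more in the series; tested in PC3 cells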;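 note: first round at 10 µM; read as green reporter fluorescence; hits show the peak of a series up to 25 µM; 1 = signal of infected wells without compound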
INS promoter inh cell count: recorded beside INS promoter inh, whose call it bears; normalized cell count, %; measured here: cell count, toxicity; reference of the scale not given here;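 cells exposed to compound for 48 h; stained nuclei by imaging scaled within each plate; lower means fewer cells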
HSV replic up primary fold: also measured in HSV replic up; calls as there; fold increase; compound at 10 µM; measured here: primary screen fold increase 10 uM; tested in PC3 cells;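 GFP signal in the first replicate; 1 = infected wells without compound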
* = called active by the depositor; i = inactive; · = no result given.

#	smiles	INS promoter inh	INS promoter inh cell count	PKD1 kinase inh	GALR2 agonist	RGS16-Gao HTS	HSV replic up	HSV replic up primary fold
1	Cc1c(Cl)c([N+](=O)[O-])nn1CCCC(=O)Nc1c(C)n(C)n(-c2ccccc2)c1=O	33.3	97.2	0.1	·	97.0	i	0.94
2	O=C(O)Cc1ccc(NC(=O)CCN2C(=O)c3ccc([N+](=O)[O-])cc3C2=O)cc1	50.0	134.5	-5.4	·	82.8	i	0.9
3	Cc1nnc(Sc2cc(NCCCO)c([N+](=O)[O-])c3nonc23)s1	·	·	1.7	·	36.0	i	0.92
4	COc1ccccc1-c1nc(C#N)c(N2CCc3ccccc3C2)o1	50.0	140.2	-9.0	-1.3	89.8	i	1.03
5	O=C(NCc1ccc2c(c1)OCO2)c1ccc(S(=O)(=O)N2CCOCC2)cc1	-33.3	112.5	-8.8	·	101.8	i	0.98
6	COc1ccc(Cl)cc1NC(=O)CN(C)CC(=O)Nc1ccc(C)cc1Br	7.1	150.8	-6.8	·	102.7	i	0.9
7	O=C(N/N=C/c1ccc(N2CCCCC2)o1)c1ccccc1[N+](=O)[O-]	40.0	138.3	4.6	-1.3	88.2	i	0.88
8	COc1ccc(N2C(=O)CCC(C(=O)N3CCOCC3)C2c2ccc(F)cc2)cc1 (configuration not stated)	-25.6	138.9	-6.6	1.5	98.2	i	1.04
9	N#C/C(=C/c1cccs1)c1ccccn1	·	·	·	·	100.9	i	0.93
10	O=S1(=O)C=C(Sc2nc3cc(Cl)ccc3o2)c2ccccc21	·	·	-15.2	-1.0	101.8	i	0.95
11	CN(C)S(=O)(=O)c1ccc(N2CCCC2)c(C(=O)NC(c2ccccc2)c2ccccc2)c1	-29.7	40.4	-6.4	-1.9	100.5	i	0.85
12	O=C(Nc1ccc(C2SCCS2)cc1)c1ccccc1	·	·	·	·	100.2	i	0.89
13	Fc1ccc2nc3[nH]c4ccccc4c3nc2c1	90.9*	96.4*	-9.1	0.4	102.7	i	0.73
14	COc1cc(/C=C(\NC(C)=O)C(=O)Nc2cccc(O)c2)ccc1OC(C)=O	0.0	99.8	-1.7	0.7	102.4	i	1.06
15	C=CCn1c(C(CCCC)CC(O)COCC(C)C)n[nH]c1=S (configuration not stated)	·	·	0.5	·	115.5	i	0.98
16	COc1cnc(-c2ccccn2)nc1Sc1c(Cl)cccc1Cl	·	·	3.5	-1.3	97.2	i	0.76
17	O=C(NC1CC2CCCC(C1)N2C1CC1)NC12CC3CC(CC(C3)C1)C2 (configuration not stated)	·	·	-4.9	-2.0	·	·	·
18	[O-][n+]1onc2c1CCC(=N/O)/C2=N\Nc1ccccc1	·	·	·	·	97.3	i	1.08
19	CC(=O)Nc1ccc(S(=O)(=O)NCC2CCC(C(=O)NC3CCCCCC3)CC2)cc1 (configuration not stated)	-44.4	101.7	-10.3	-1.1	103.7	i	0.96
20	CCCCCCC(=O)NNC(=O)c1c(O)c2ccccc2n(CC)c1=O	37.5	106.3	5.7	·	96.3	i	0.92
21	CC(C)C(=O)Nc1cccc(NC(=O)c2cccc(F)c2)c1	·	·	-11.6	·	99.0	i	0.91
22	CCOC(=O)COn1c2c(c3c4no[n+]([O-])c4ccc31)CCCC2	-12.1	92.6	0.4	-3.5	99.9	i	1.06
23	Cc1nc[nH]c(=O)c1Br	·	·	3.7	0.0	107.4	i	0.94
24	Cc1cc(C)c2c(n1)nn1c(C3CC3)cc(C(F)(F)F)nc21	38.5	113.9	-3.8	-0.8	·	i	0.97
25	Cc1c(-c2ccccc2)nc2ccccc2c1C(=O)Oc1ccc([N+](=O)[O-])cc1	-44.8	110.1	-3.8	-2.6	103.5	i	0.85
26	O=C(O)c1cccc(NC(=S)N/N=C/c2ccccn2)c1	·	·	6.9	·	102.2	i	0.88
27	CCOC(=O)CN1C(=O)COc2ccc(C(C)(C)C)cc21	·	·	-0.8	-0.6	102.8	i	0.75
28	Cc1cccc(C)c1NC(=O)c1cn(-c2ccccc2)nc1-c1ccccc1	15.4	158.3	6.9	-0.4	106.3	i	0.96
29	COc1ccc(-n2nnnc2SCC(=O)NCCc2ccccc2)cc1OC	-15.4	107.2	-2.8	·	101.3	i	0.98
30	CCCCCOC(=O)c1ccc(OC(=O)c2cncc(Br)c2)cc1	-26.3	55.1	-5.9	-2.7	98.4	i	0.83
31	Cc1sc(NC(=O)CSC2=NCCS2)nc1-c1ccccc1	-32.3	107.5	-3.2	-0.6	117.4	i	0.94
32	COC(=O)c1c(NC(=O)Cc2cccs2)sc(C)c1C	·	·	0.0	-0.4	96.7	i	0.96
33	CS(=O)(=O)c1ccc(Cl)c(NC(=O)COC(=O)c2cccc(C#N)c2)c1	-28.6	143.2	-6.5	·	109.7	·	·
34	COC(C[C@H]1O[C@H]1[C@@H](O)[C@@H](C)OCc1ccccc1)OC	·	·	·	·	108.0	i	1
35	O=c1[nH]c2cc([N+](=O)[O-])c(NCCO)c([N+](=O)[O-])c2[nH]1	·	·	5.5	·	108.1	i	0.81
36	C/C(=N\NC(=O)c1nn(C)c(C)c1Br)c1ccc(NC(=O)c2ccc(C)s2)cc1	·	·	-12.1	·	110.2	i	0.95
37	O=[N+]([O-])c1nn(-c2ccc3c(c2)OCCO3)n(O)c1=Nc1ccccc1	-6.9	101.8	-7.3	-2.3	105.8	i	0.91
38	O=C(NC1CCCCC1)N1CCN(c2ccccc2)CC1	0.0	54.3	-3.0	0.7	101.4	i	0.99
39	O=C(NN=C1CCCC1)c1cccs1	0.0	80.7	-3.8	-0.7	105.7	i	1.04
40	CCO[C@H]1OC(C(=O)N2CCCCCCC2)=C[C@@H](C2CCCCC2)[C@@H]1CCCO	·	·	-0.5	·	98.8	i	0.81
41	CCN(CC)CC(O)COCCC12CC3CC(CC(C3)C1)C2 (configuration not stated)	34.4	133.3	0.3	-0.8	95.4	i	0.82
42	Cn1c(SCC(=O)NCCN2C(=O)CSC2=O)nnc1-c1ccccc1	-8.1	159.1	10.8	-0.6	129.6	i	1.01
43	COc1ccc(CC(=O)Nc2nc3ccc(F)cc3s2)cc1S(=O)(=O)N1CCOCC1	2.6	60.2	-9.4	-1.5	107.8	i	0.99
44	CSc1nc(O)c(Cc2ccccc2)c(=O)[nH]1	·	·	-3.4	-0.6	101.0	i	1.06
45	Cc1nc(SCC(=O)c2cc3ccccc3oc2=O)c(C#N)c(-c2ccccc2)c1C(=O)Nc1ccccc1	-6.7	91.3	-6.2	0.1	94.1	i	1.02
46	CC1CCc2c(sc3ncnc(NCCN4CCOCC4)c23)C1 (configuration not stated)	·	·	·	·	97.0	i	0.88
47	CN(C)CCCNC(=O)c1ccc(=O)[nH]n1	·	·	·	·	97.7	i	1.31
48	CCN(CC)c1nc2n(c(=S)n1)CCS2	·	·	-16.2	0.7	124.8	i	0.9
49	COc1ccc(-c2csc3ncnc(NCCN4CCOCC4)c23)cc1	·	·	30.6	-1.0	98.7	i	0.79
50	O=C(C(Sc1ccccc1)c1ccccc1)N1CCN(c2ccccc2F)CC1 (configuration not stated)	30.0	84.8	15.5	-4.5	113.4	i	1.07

Further entries.
Labels used below – A = INS promoter inh; B = INS promoter inh cell count; C = PKD1 kinase inh; D = GALR2 agonist; E = RGS16-Gao HTS; F = HSV replic up; G = HSV replic up primary fold
(51) CCOC(=O)c1ccccc1NC1c2ccccc2C(=O)N1c1ccc(C)cn1 (configuration not stated)
  A: · | B: · | C: -0.9 | D: -0.5 | E: 102.8 | F: i | G: 0.72
(52) CCCC1=NN(C(=O)CCc2ccccc2O)C(O)(C(F)(F)F)C1 (configuration not stated)
  A: 3.3 | B: 86.7 | C: -14.2 | D: 0.5 | E: 100.9 | F: i | G: 1.02
(53) CC(=O)OC1c2ccccc2C(=O)N1c1ccccc1C (configuration not stated)
  A: · | B: · | C: -5.4 | D: -1.3 | E: 103.5 | F: i | G: 0.99
(54) Cc1nc2ccc(S(=O)(=O)N(C)CC(=O)NCc3ccc4c(c3)OCO4)cc2s1
  A: 7.1 | B: 64.8 | C: -5.1 | D: -2.4 | E: 104.8 | F: i | G: 0.99
(55) COCCNC(=O)CCc1nnc(Cc2ccc(-c3ccccc3)cc2)o1
  A: · | B: · | C: -3.0 | D: · | E: 108.4 | F: i | G: 0.95
(56) O=S(=O)(c1ccc(-c2cc(C(F)(F)F)on2)s1)N1CCCC1
  A: · | B: · | C: · | D: · | E: 106.7 | F: i | G: 0.84
(57) NC1=NC(=O)C(CC(=O)c2ccc(Cl)cc2)S1 (configuration not stated)
  A: -3.2 | B: 66.7 | C: -4.7 | D: -1.3 | E: 115.7 | F: i | G: 1.11
(58) CCCCn1c(-c2ccccc2)nnc1-c1ccccc1
  A: · | B: · | C: 14.0 | D: -1.1 | E: 103.5 | F: i | G: 0.993
(59) C/C(N)=C(/C#N)C(=O)COC(=O)CCC1CCCC1
  A: -16.7 | B: 119.8 | C: 1.8 | D: -2.2 | E: 98.5 | F: i | G: 1.04
(60) COc1ccc(OCc2cccc(C(=O)Nc3ccc(CN4CCCCC4)cc3)c2)cc1
  A: 17.2 | B: 91.8 | C: 4.1 | D: -0.6 | E: 95.3 | F: i | G: 0.71
(61) Cc1nn(Cc2ccc(F)cc2)c(C)c1NC(=O)c1nn(C)cc1Cl
  A: 50.0 | B: 125.8 | C: 0.1 | D: -1.7 | E: 110.3 | F: i | G: 0.94
(62) CCOC(=O)Cc1csc(NC(=O)CSc2ncnc3c2cnn3-c2ccccc2Cl)n1
  A: · | B: · | C: 3.8 | D: -1.4 | E: 100.0 | F: i | G: 0.987
(63) COC(=O)CN1C(=O)C(O)(CC(=O)c2ccccc2)c2ccccc21 (configuration not stated)
  A: -3.0 | B: 97.2 | C: -3.9 | D: -1.5 | E: 96.1 | F: i | G: 0.95
(64) Nc1ccc(OCc2ccccc2)cc1
  A: · | B: · | C: 3.5 | D: -2.0 | E: 102.2 | F: i | G: 0.88
(65) CCOC(=O)c1c(C)[nH]c(C(=O)COC(=O)CCC(=O)c2ccc3c(c2)OCCO3)c1C
  A: · | B: · | C: -12.3 | D: -1.1 | E: 100.1 | F: i | G: 1.11
(66) CS(=O)(=O)CCC(C(=O)OCc1ccc(Cl)cc1)N1C(=O)c2ccccc2C1=O (configuration not stated)
  A: -55.6 | B: 58.4 | C: -3.2 | D: -1.0 | E: 69.7 | F: i | G: 0.91
(67) CCN(CC)CCOc1c(Br)ccc2c1sc1nc3n(c(=O)c12)CCC3
  A: 16.1 | B: 57.5 | C: -5.9 | D: -0.3 | E: 100.8 | F: i | G: 0.9
(68) N#CC1=C(N)C(C#N)(C#N)[C@H](c2c(F)cccc2F)[C@H]2CC3(CC=C12)OCCO3
  A: -15.2 | B: 90.1 | C: 7.5 | D: -1.0 | E: 97.3 | F: i | G: 1.03
(69) CC1=C(C(=O)OCC2CCCO2)C(c2ccc(O)cc2)NC(=O)N1 (configuration not stated)
  A: · | B: · | C: 2.6 | D: -0.8 | E: 98.6 | F: i | G: 1.03

Another view of 13 compounds above.
Values run as follows: INS promoter inh	INS promoter inh cell count	PKD1 kinase inh	GALR2 agonist	RGS16-Gao HTS	HSV replic up	HSV replic up primary fold
57) NC1=NC(=O)C(CC(=O)c2ccc(Cl)cc2)S1 (configuration not stated)
  -3.2	66.7	-4.7	-1.3	115.7	i	1.11
58) CCCCn1c(-c2ccccc2)nnc1-c1ccccc1
  ·	·	14.0	-1.1	103.5	i	0.993
59) C/C(N)=C(/C#N)C(=O)COC(=O)CCC1CCCC1
  -16.7	119.8	1.8	-2.2	98.5	i	1.04
60) COc1ccc(OCc2cccc(C(=O)Nc3ccc(CN4CCCCC4)cc3)c2)cc1
  17.2	91.8	4.1	-0.6	95.3	i	0.71
61) Cc1nn(Cc2ccc(F)cc2)c(C)c1NC(=O)c1nn(C)cc1Cl
  50.0	125.8	0.1	-1.7	110.3	i	0.94
62) CCOC(=O)Cc1csc(NC(=O)CSc2ncnc3c2cnn3-c2ccccc2Cl)n1
  ·	·	3.8	-1.4	100.0	i	0.987
63) COC(=O)CN1C(=O)C(O)(CC(=O)c2ccccc2)c2ccccc21 (configuration not stated)
  -3.0	97.2	-3.9	-1.5	96.1	i	0.95
64) Nc1ccc(OCc2ccccc2)cc1
  ·	·	3.5	-2.0	102.2	i	0.88
65) CCOC(=O)c1c(C)[nH]c(C(=O)COC(=O)CCC(=O)c2ccc3c(c2)OCCO3)c1C
  ·	·	-12.3	-1.1	100.1	i	1.11
66) CS(=O)(=O)CCC(C(=O)OCc1ccc(Cl)cc1)N1C(=O)c2ccccc2C1=O (configuration not stated)
  -55.6	58.4	-3.2	-1.0	69.7	i	0.91
67) CCN(CC)CCOc1c(Br)ccc2c1sc1nc3n(c(=O)c12)CCC3
  16.1	57.5	-5.9	-0.3	100.8	i	0.9
68) N#CC1=C(N)C(C#N)(C#N)[C@H](c2c(F)cccc2F)[C@H]2CC3(CC=C12)OCCO3
  -15.2	90.1	7.5	-1.0	97.3	i	1.03
69) CC1=C(C(=O)OCC2CCCO2)C(c2ccc(O)cc2)NC(=O)N1 (configuration not stated)
  ·	·	2.6	-0.8	98.6	i	1.03
